Insulin prom inh = TRM-6 insulin promoter activity inhibition. TRM-6 cells (human fetal islet line), insulin promoter-eGFP reporter, imaging; reporter expression induced with tamoxifen. inhibition, % at 2 µM. hit rate 0.9% among 130,000;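 active = inhibition above the mean plus 3 SD, with well images judged a real hit on visual review, cut at about 60% in these data, passing the limit was not always enough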
RGS16-Gao = RGS16-Galphao interaction regulator (human). hit rate 0.38% among 220,000. bead-based flow cytometry RGS16-Galphao binding, fluorescence; actives lie on both sides. O15492+P09471. binding response (% of control), % at 10 µM. AID 1441;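 active = below 25% or above 175%, edge rows of some plates excepted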;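 also: Galphao activated by GDP with aluminum fluoride before binding; 100% = wells without compound and 0% = beads without RGS; some results beyond the cut were filed as inactive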
Target sequence (O15492 whole entry, looked up): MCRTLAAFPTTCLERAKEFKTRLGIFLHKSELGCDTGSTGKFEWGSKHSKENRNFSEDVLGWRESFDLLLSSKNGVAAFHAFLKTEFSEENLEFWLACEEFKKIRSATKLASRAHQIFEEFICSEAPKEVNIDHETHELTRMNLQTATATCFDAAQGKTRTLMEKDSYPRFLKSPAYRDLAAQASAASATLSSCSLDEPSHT
Target sequence (P09471 whole entry, looked up): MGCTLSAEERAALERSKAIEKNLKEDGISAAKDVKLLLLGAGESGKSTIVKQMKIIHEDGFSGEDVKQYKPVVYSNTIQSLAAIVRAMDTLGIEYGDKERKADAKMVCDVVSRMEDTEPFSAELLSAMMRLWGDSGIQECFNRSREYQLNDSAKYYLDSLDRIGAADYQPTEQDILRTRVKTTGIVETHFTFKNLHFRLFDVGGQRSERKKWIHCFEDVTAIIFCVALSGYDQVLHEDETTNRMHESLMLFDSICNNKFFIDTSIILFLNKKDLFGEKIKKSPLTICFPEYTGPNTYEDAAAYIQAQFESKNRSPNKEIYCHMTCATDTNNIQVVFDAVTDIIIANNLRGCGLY
GALR2 ag = agonists of human galanin receptor 2 (GALR2) | activation, %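 (tested at 5 µM)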 | O43603 | AID 803 | hit rate 0.48% among 140,000 | GALR2-expressing cells, agonist activation read-out;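 active = above mean plus 3 SD of all compounds, about 5% in these data, not always enough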;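 also: 0% = vehicle buffer wells and 100% = reference agonist at full effect; tested in CHO reporter cells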
Target sequence (O43603 whole entry, looked up): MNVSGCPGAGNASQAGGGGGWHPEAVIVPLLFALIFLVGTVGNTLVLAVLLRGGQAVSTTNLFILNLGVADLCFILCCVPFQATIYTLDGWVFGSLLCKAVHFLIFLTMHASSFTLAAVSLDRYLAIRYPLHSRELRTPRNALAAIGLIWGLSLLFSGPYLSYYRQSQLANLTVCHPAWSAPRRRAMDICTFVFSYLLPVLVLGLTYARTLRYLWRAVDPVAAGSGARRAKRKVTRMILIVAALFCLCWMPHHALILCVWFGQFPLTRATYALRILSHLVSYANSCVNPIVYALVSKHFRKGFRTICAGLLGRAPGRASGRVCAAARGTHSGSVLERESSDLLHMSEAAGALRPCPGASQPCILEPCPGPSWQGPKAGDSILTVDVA
HSV replic up = HSV replication enhancement | maximum fold increase | HSV replication augmentation in cells, fold increase | hit rate 0.005% among 220,000;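 active = peak rise of 1.5-fold or more in the series; tested in PC3 cells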;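 also: first round at 10 µM; read as green reporter fluorescence; hits show the peak of a series up to 25 µM; 1 = signal of infected wells without compound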
PKD1 kinase inh = inhibitors of human PKD1 kinase. inhibition, %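 (about 10 µM by stock and volumes)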. Q15139. AID 797. hit rate 0.056% among 200,000. PKD1 kinase fluorescence polarization assay;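 active = inhibition of 50% or more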;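 also: controls were vehicle for no effect and a reference inhibitor for full effect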
Insulin prom inh cell count = also measured in Insulin prom inh; calls as there; normalized cell count, %; measured here: cell count, toxicity; reference of the scale not given here;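 cells exposed to compound for 48 h; stained nuclei by imaging scaled within each plate; lower means fewer cells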
HSV replic up primary fold = second read-out of HSV replic up, no call of its own (marks repeat the call); fold increase; compound at 10 µM; measured here: primary screen fold increase 10 uM; tested in PC3 cells;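 GFP signal in the first replicate; 1 = infected wells without compound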
* hit, by the source's call; i = inactive; . = not tested or not shown; [ ] = another dose, or the depositor's remark.

SMILES	Insulin prom inh	Insulin prom inh cell count	RGS16-Gao	GALR2 ag	HSV replic up	HSV replic up primary fold	PKD1 kinase inh
CC1(C)SCC2C(=O)N3C(CSC3(C)C)C(=O)N21 (configuration not stated)	.	.	126	0.7	i	0.89	4
CSc1nc(C)c(CCOC(=O)c2cccc(Cl)c2)c(=O)[nH]1	-25	43	39	-3.1	i	0.91	0
CC(=O)Nc1ccc(NC(=O)c2ccccc2S(=O)(=O)c2ccc([N+](=O)[O-])cc2)cc1	.	.	102	.	i	0.94	0
Cc1ccc(CSc2nnc(-c3cccs3)n2C)cc1	34	86	103	-1.4	i	0.97	-1
NC(N)=NS(=O)(=O)c1ccc(NC(=S)NC(=O)c2ccc3c(c2)OCO3)cc1	-58	139	105	.	i	1	1
COC(=O)C1=NN(c2ccccc2)C2(S1)SC(C(C)=O)=C(C)N2c1ccccc1 (configuration not stated)	-8	200	102	0.2	i	0.88	-3
COc1cccc(NC(=O)Cc2nnc(SCCOc3ccccc3)n2C)c1	7	112	99	-3.4	i	0.88	-5
CON(c1nc(Cl)nc(N(C)C)n1)S(=O)(=O)c1ccccc1Cl	-22	69	125	-0.2	i	0.82	-1
CCCCCOC(=O)Cn1c(=O)oc2ccc(C)cc21	37	82	93	-1.1	i	0.97	2
CCCCN(C)C(=O)c1nc2ccccn2c1CN1CCN(c2ncccn2)CC1	.	.	94	.	i	1	4
Cc1ccc(N(CC(=O)N/N=C/c2cccs2)S(C)(=O)=O)cc1Cl	-25	81	100	-1.7	i	0.89	-1
COc1ccc(CN2CCNC(=O)C2CC(=O)NCCSc2nccn2C)cc1OC (configuration not stated)	-33	76	104	.	i	1	-5
COc1ccc(S(=O)(=O)N2CCCCCC2)cc1N	20	110	100	.	i	0.98	-1
COc1ccc(-c2cc(-c3c(O)c(OC)c4occc4c3OC)[nH]n2)cc1OC	31	128	96	-1.1	i	0.79	-2
COc1ccc(/C=N/OC(=O)Nc2ccccc2OC)cc1	8	100	99	.	i	0.85	-8
Cc1ccc(C)c(C(=O)CSc2nc3ccccc3c(=O)[nH]2)c1	-47	138	87	.	i	0.88	7
CCCOc1ccc(/C=N/Nc2ccc(C(=O)O)cc2)c(OCCC)c1	.	.	96	.	i	0.92	3
CCN(CC(=O)N1CCOCC1)S(=O)(=O)c1ccc(C)cc1	23	100	108	-1.5	i	1	-4
O=C(N/N=C/C=C/c1ccco1)c1ccncc1	.	.	89	.	i	1	.
C/C(Cn1nnc2ccccc21)=N\NC(=O)c1cccc(Br)c1	-66	166	95	-0.3	i	0.94	-7
Cc1ccc(C)c(OCCn2cc(/C=C(\C#N)C(=O)NCc3ccco3)c3ccccc32)c1	-4	64	101	0.0	i	0.83	1
CCC(C)c1c(O)nc(SCC(=O)c2ccccc2)[nH]c1=O (configuration not stated)	9	66	101	-0.2	i	1	-2
Cc1ccc(SCC(=O)N2CC(C)OC(C)C2)cc1 (configuration not stated)	8	112	97	1.2	i	1.1	-1
CSc1ccc(Cn2nnc(C(=O)NCc3ccccc3)c2N)cc1	.	.	105	-0.5	i	0.94	-11
Cc1ccc(C)c(N2CC(C(=O)O)CC2=O)c1 (configuration not stated)	.	.	111	.	i	0.82	-3

3 entries out of the list above, ordered by the value under HSV replic up primary fold, ascending.
SMILES	RGS16-Gao	GALR2 ag	HSV replic up	HSV replic up primary fold	PKD1 kinase inh
COc1cccc(NC(=O)Cc2nnc(SCCOc3ccccc3)n2C)c1	99	-3.4	i	0.88	-5
CCCCCOC(=O)Cn1c(=O)oc2ccc(C)cc21	93	-1.1	i	0.97	2
COc1ccc(S(=O)(=O)N2CCCCCC2)cc1N	100	.	i	0.98	-1

Later entries:
SMILES	Insulin prom inh	Insulin prom inh cell count	RGS16-Gao	GALR2 ag	HSV replic up	HSV replic up primary fold	PKD1 kinase inh
CCC(=O)c1ccc(O)cc1	48	49	105	-0.4	i	0.88	-5
C/C(=N\NC(=O)c1ccc(C)cc1C)c1ccc(-n2ccnc2)cc1	.	.	100	-0.1	i	0.94	-13
CN1CCN(Cc2nc(-c3cccs3)no2)CC1c1ccccc1 (configuration not stated)	.	.	108	.	i	0.98	2
N/C(=N\OC(=O)CCc1ccccc1)c1ccc(Br)cc1	-10	80	81	-0.2	i	0.88	-12
CCOC(=O)CSC(CC)C(=O)Nc1nnc(CC)s1 (configuration not stated)	.	.	107	-1.9	i	0.87	-12
O=c1c(-c2ccco2)[n+]([O-])c2ccccc2n1OCc1ccccc1F	-11	47	102	-0.6	i	0.87	0
CCOc1ccc(Oc2c(/C=N/NC(C)=O)c(C)nn2-c2ccccc2)cc1	50	100	98	0.2	i	0.97	-4
Cc1ccc(-n2ncc3c(NCc4ccco4)ncnc32)c(C)c1	-10	79	115	-2.4	i	1	-16
c1ccc(-c2cn3c(n2)CCc2ccc4cccnc4c2-3)cc1	9	62	98	-2.9	i	0.93	-8
Cc1noc(COc2ccc(OCc3nc(C)no3)cc2)n1	7	188	107	-1.9	i	0.88	-3
C=CCN1CC(O)=C(c2ccccc2)C1=N	21	53	104	-0.5	i	0.81	-3
O=C(O)c1cc(-c2cccs2)nc2cc3c(cc12)OCCO3	86*	159*	99	-0.3	i	0.92	-5
NC(=O)c1ccc(NC(=O)COC(=O)/C=C/c2cccs2)cc1	.	.	100	.	i	0.98	-7
O=C(/C=C/c1ccc([N+](=O)[O-])cc1)NCc1cccnc1	.	.	101	-2.6	.	.	-5
CCN(CC(=O)Nc1ccc2c(c1)OCCO2)c1nc(-c2cccnc2)nc2ccccc12	.	.	103	-0.5	i	0.99	-7
CCCOc1ccc(S(=O)(=O)n2cc(Br)c(=O)[nH]c2=O)cc1	.	.	105	-2.5	i	0.89	-10
O=C(O)CC1(CC(=O)Nc2ccccc2C(=O)c2ccccc2)CCCC1	.	.	91	.	i	0.92	-3
Cc1cc(C)nc(NS(=O)(=O)c2ccc(NC(=S)NC(=O)CC(C)C)cc2)n1	6	74	270*[activator]	-1.4	.	.	-1
CN1CCN(C(=S)NC(=O)/C=C/c2cccs2)CC1	.	.	107	.	i	1	.
COc1cc(NC(=O)c2ccco2)c(C(=O)O)cc1OC	29	106	88	-3.7	i	0.88	5
CCCCN(CCCC)c1nc(-c2ccncc2)nc2ccccc12	.	.	105	.	i	1	.
CCCn1cc(CN2CCC(Cc3ccccc3)(C(=O)OCC)CC2)c(C)n1	.	.	98	.	i	1	3
CCOC(=O)N1CCN(S(=O)(=O)c2ccc(OCC(=O)OC)c(C)c2)CC1	-19	142	98	-0.8	i	0.97	0
Cc1cccc(C(=O)N[C@H](C(=O)OCc2cc(=O)n3c(n2)sc2ccccc23)C(C)C)c1	32	60	143	-1.1	i	1	-6
C/C(=N/NC(=O)CNC(=O)c1ccccn1)c1ccccc1	-23	130	93	0.6	i	1	-11

As a working copy, some entries already given.
SMILES	Insulin prom inh	Insulin prom inh cell count	RGS16-Gao	GALR2 ag	HSV replic up	HSV replic up primary fold	PKD1 kinase inh
N/C(=N\OC(=O)CCc1ccccc1)c1ccc(Br)cc1	-10	80	81	-0.2	i	0.88	-12
CCOC(=O)CSC(CC)C(=O)Nc1nnc(CC)s1 (configuration not stated)	.	.	107	-1.9	i	0.87	-12
O=c1c(-c2ccco2)[n+]([O-])c2ccccc2n1OCc1ccccc1F	-11	47	102	-0.6	i	0.87	0
CCOc1ccc(Oc2c(/C=N/NC(C)=O)c(C)nn2-c2ccccc2)cc1	50	100	98	0.2	i	0.97	-4
Cc1ccc(-n2ncc3c(NCc4ccco4)ncnc32)c(C)c1	-10	79	115	-2.4	i	1	-16
c1ccc(-c2cn3c(n2)CCc2ccc4cccnc4c2-3)cc1	9	62	98	-2.9	i	0.93	-8
Cc1noc(COc2ccc(OCc3nc(C)no3)cc2)n1	7	188	107	-1.9	i	0.88	-3
C=CCN1CC(O)=C(c2ccccc2)C1=N	21	53	104	-0.5	i	0.81	-3
O=C(O)c1cc(-c2cccs2)nc2cc3c(cc12)OCCO3	86*	159*	99	-0.3	i	0.92	-5
NC(=O)c1ccc(NC(=O)COC(=O)/C=C/c2cccs2)cc1	.	.	100	.	i	0.98	-7
O=C(/C=C/c1ccc([N+](=O)[O-])cc1)NCc1cccnc1	.	.	101	-2.6	.	.	-5
CCN(CC(=O)Nc1ccc2c(c1)OCCO2)c1nc(-c2cccnc2)nc2ccccc12	.	.	103	-0.5	i	0.99	-7
CCCOc1ccc(S(=O)(=O)n2cc(Br)c(=O)[nH]c2=O)cc1	.	.	105	-2.5	i	0.89	-10
O=C(O)CC1(CC(=O)Nc2ccccc2C(=O)c2ccccc2)CCCC1	.	.	91	.	i	0.92	-3
Cc1cc(C)nc(NS(=O)(=O)c2ccc(NC(=S)NC(=O)CC(C)C)cc2)n1	6	74	270*[activator]	-1.4	.	.	-1
CN1CCN(C(=S)NC(=O)/C=C/c2cccs2)CC1	.	.	107	.	i	1	.
COc1cc(NC(=O)c2ccco2)c(C(=O)O)cc1OC	29	106	88	-3.7	i	0.88	5
CCCCN(CCCC)c1nc(-c2ccncc2)nc2ccccc12	.	.	105	.	i	1	.
CCCn1cc(CN2CCC(Cc3ccccc3)(C(=O)OCC)CC2)c(C)n1	.	.	98	.	i	1	3
CCOC(=O)N1CCN(S(=O)(=O)c2ccc(OCC(=O)OC)c(C)c2)CC1	-19	142	98	-0.8	i	0.97	0
Cc1cccc(C(=O)N[C@H](C(=O)OCc2cc(=O)n3c(n2)sc2ccccc23)C(C)C)c1	32	60	143	-1.1	i	1	-6
C/C(=N/NC(=O)CNC(=O)c1ccccn1)c1ccccc1	-23	130	93	0.6	i	1	-11

(next part)
SMILES	Insulin prom inh	Insulin prom inh cell count	RGS16-Gao	GALR2 ag	HSV replic up	HSV replic up primary fold	PKD1 kinase inh
O=C(O)CCC(NS(=O)(=O)c1ccc(-c2ccccc2)cc1)C(=O)O (configuration not stated)	-11	103	105	-0.6	i	0.79	-4
CCOC(=O)N1CCC2(CC1)C(C#N)=C(N)Oc1c2c(C)nn1-c1cccc(Cl)c1	0	85	101	-3.5	i	0.98	5
COc1cc(CCC(=O)Nc2cccc(C(F)(F)F)c2)cc(OC)c1OC	.	.	121	-0.4	i	1.2	6
Cc1ccc(CN(Cc2ccccc2)C(=S)NCC(=O)NCc2cccnc2)o1	-33	118	105	.	i	1	3
COc1ccc(NC(=O)CSc2nc(C)cc(C)n2)cc1	17	53	109	-1.7	i	0.95	-13
O=C(c1ccco1)N1CCN(c2ncnc3scc(-c4ccc(F)cc4)c23)CC1	-38	86	99	-1.2	i	0.93	0
Cc1c(Cl)c(C(=O)NNC(=S)NCc2ccco2)nn1C	-18	84	110	-0.1	i	0.93	-2
OCCN1CCN(C(c2cccs2)c2ccc3cccnc3c2O)CC1 (configuration not stated)	.	.	100	-2.6	i	0.77	16
CCN(CC)CCCNC(=O)c1cn(C)c2ccc(S(=O)(=O)N(C)C)cc2c1=O	.	.	102	-1.6	i	1	5
Cn1nnnc1SCC(=O)Nc1ccc2c(c1)OCCO2	.	.	99	.	i	0.97	2
Cc1ccc(C)c(NC(=O)CN(C)C(=O)COc2ncnc3sccc23)c1	-3	67	113	-2.2	i	1.1	-5
CCn1nc([N+](=O)[O-])c(C(C#N)c2nc3ccccc3n2C)c(Cl)c1=O (configuration not stated)	-19	117	100	-0.3	i	0.94	-1
O=C(N/N=C/c1cc([N+](=O)[O-])ccc1O)c1ccc2c(c1)OCCO2	.	.	71	-0.7	i	0.92	9
CCOC(=O)C(CC)n1cnc2c(nnn2-c2ccc(C)cc2)c1=O (configuration not stated)	.	.	92	-0.8	i	1	8
COc1ccc(C(=O)NCc2ccc(-n3cccc3)cc2)cc1OC	.	.	102	.	i	1	8
COC(=O)C1=C(Nc2ccccc2NS(=O)(=O)c2ccc(C(F)(F)F)cc2Cl)CSC1	.	.	96	.	i	0.89	.
COCCNC(=S)NCc1ccc2[nH]c3c(c2c1)CCCC3	18	135	109	.	i	0.86	-5
Cn1nccc1NC(=O)COCC(=O)O	.	.	101	.	i	0.94	.
O=C(NCc1ccc(Cl)cc1)c1cc([N+](=O)[O-])ccc1Cl	.	.	99	.	i	0.94	2
Nc1ccn(-c2ncc(C(F)(F)F)cc2Cl)c(=O)n1	.	.	103	.	i	0.98	5
Cc1cccc(C)c1OCc1n[nH]c(=S)o1	-47	92	109	-4.8	i	0.9	-7
CN(C(=O)c1ccncc1)c1ccccc1	.	.	106	.	i	0.96	.
CCOC(=O)N1CCN(CC(=O)Nc2ccc(OC)cc2)CC1	54	116	100	0.0	i	0.97	-3
COc1cc(C(=O)Nc2nnc(C(F)(F)F)s2)c([N+](=O)[O-])cc1OC	.	.	101	.	i	0.9	-8

Compound activity as filed in PubChem BioAssay.
